Bioassay records: PubChem, ICCB-Longwood Screening Facility, Harvard Medical School
MbtI inh – MbtI salicylate synthase inhibitors, primary screen, biochemical, fluorescence intensity; P9WFX0; purified MbtI enzyme, fluorescence intensity read-out; inhibition, %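 (about 17 µg/mL by stock and volumes)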; actives 0.89% (n = 100,000);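 active means above 50% in both replicates, above 80% if mildly self-fluorescent; inactive means the rest, strongly fluorescent compounds included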;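 further: 0% = mean of negative and 100% = mean of positive controls; one replicate is shown; some compounds called inactive have numbers as strong as hits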
Target sequence (P9WFX0 whole entry, looked up): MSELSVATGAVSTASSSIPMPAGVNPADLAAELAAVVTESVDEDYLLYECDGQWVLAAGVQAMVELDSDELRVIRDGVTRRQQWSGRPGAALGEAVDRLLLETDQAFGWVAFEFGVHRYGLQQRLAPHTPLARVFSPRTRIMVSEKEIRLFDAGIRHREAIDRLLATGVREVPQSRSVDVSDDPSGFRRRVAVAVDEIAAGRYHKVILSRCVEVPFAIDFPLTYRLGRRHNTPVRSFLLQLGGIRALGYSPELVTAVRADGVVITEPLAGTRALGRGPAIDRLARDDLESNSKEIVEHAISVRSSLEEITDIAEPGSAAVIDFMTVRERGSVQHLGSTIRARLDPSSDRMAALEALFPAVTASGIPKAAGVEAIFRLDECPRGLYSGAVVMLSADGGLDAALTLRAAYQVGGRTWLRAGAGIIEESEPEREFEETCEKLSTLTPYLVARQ
Mtb MenB inh – M. tuberculosis MenB inhibitors, primary screen, biochemical, absorbance; MenB enzyme assay, absorbance read-out; some hits fall short of the stated cut; 1,4-dihydroxy-2-naphthoyl-CoA synthase (Mycobacterium tuberculosis (strain ATCC 25618 / …; actives 0.43% (n = 100,000); inhibition, %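 (about 12 µg/mL by stock and volumes)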;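 active means mean of two replicates above 30%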;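 further: 0% = no compound and 100% = wells with inactive enzyme; the first replicate is given; strong numbers were not always called active; inactives centre near -10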
Target sequence (P9WNP5 whole entry, looked up): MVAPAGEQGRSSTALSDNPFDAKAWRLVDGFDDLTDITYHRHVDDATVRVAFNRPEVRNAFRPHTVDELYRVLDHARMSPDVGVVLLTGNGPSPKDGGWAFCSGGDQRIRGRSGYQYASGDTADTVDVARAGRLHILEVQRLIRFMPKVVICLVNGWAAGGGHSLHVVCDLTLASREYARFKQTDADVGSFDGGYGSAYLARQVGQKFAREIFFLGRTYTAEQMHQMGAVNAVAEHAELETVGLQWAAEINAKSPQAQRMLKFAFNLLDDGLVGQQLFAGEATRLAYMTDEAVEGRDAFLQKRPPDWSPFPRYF
Polio RdRp inh – poliovirus RdRp elongation inhibitors, primary screen, biochemical, fluorescence polarization, total intensity. Genome polyprotein (Poliovirus type 1 (strain Mahoney)), P03300. poliovirus polymerase elongation; stronger effect = lower value. % elongation, % (compound at 16.7 µg/mL). actives 0.66% (n = 150,000); in the data active means % elongation below about 90%; further: some results filed as inactive read as strong as hits
Polio RdRp inh intensity – further read-out of Polio RdRp inh, marked with its call; % elongation; measured here: total intensity read-out; formula for this scale not given here;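 total fluorescence in place of polarization; lower means less elongation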
* = called active by the depositor; nt = no result given. This is a random part of the collection; about 1.9% have a hit in one of these screens.

A first look (5 entries):
No.	canonical_smiles	MbtI inh	Mtb MenB inh	Polio RdRp inh	Polio RdRp inh intensity
1	CC(=O)N1C(=O)NC2NC(=O)N(C(C)=O)C21 (stereo not given)	5	-14	103	102
2	CCS(=O)(=O)NCCc1csc(-c2ccccc2)n1	6	-8	105	108
3	O=C(O)c1ccc(Cn2cccn2)cc1	-3	-26	102	101
4	Cc1ccc(C)c(OCc2nnc(SC/C(O)=C(\C#N)c3nc4ccccc4[nH]3)o2)c1	-10	-29	105	101
5	Cc1noc(C)c1COC(=O)[C@H](C)N=C1NS(=O)(=O)c2ccccc21	10	-33	101	86

The whole of this part (from the top)
No.	canonical_smiles	MbtI inh	Mtb MenB inh	Polio RdRp inh	Polio RdRp inh intensity
1	CC(=O)N1C(=O)NC2NC(=O)N(C(C)=O)C21 (stereo not given)	5	-14	103	102
2	CCS(=O)(=O)NCCc1csc(-c2ccccc2)n1	6	-8	105	108
3	O=C(O)c1ccc(Cn2cccn2)cc1	-3	-26	102	101
4	Cc1ccc(C)c(OCc2nnc(SC/C(O)=C(\C#N)c3nc4ccccc4[nH]3)o2)c1	-10	-29	105	101
5	Cc1noc(C)c1COC(=O)[C@H](C)N=C1NS(=O)(=O)c2ccccc21	10	-33	101	86
6	O=C(CCSc1ccc(Cl)cc1)Nc1ccccc1	37	-26	100	101
7	Cc1ccc2c(c1)sc1nc(=O)n(-c3ccccc3)c(=O)n12	5	8	102	103
8	COc1ccc(S(=O)(=O)NCc2cn3ccccc3n2)cc1F	0	-10	104	106
9	COC(=O)c1c(NC(=S)n2cc(C)cn2)sc2c1CCC(C)C2 (stereo not given)	33	-19	101	100
10	Cc1cc(NC(=S)N(C)C)ccc1Br	96*	-5	97	102
11	CN1CCN(C(=S)Nc2ccc(S(N)(=O)=O)cc2)CC1	30	9	100	100
12	CCC(C)NC(=O)Cn1c(=O)n(Cc2ccccc2Cl)c(=O)c2cc(OC)c(OC)cc21 (stereo not given)	4	-18	102	107
13	C=CCc1ccc(OCCCn2ccnc2)c(OC)c1	-4	0	100	101
14	COc1ccc(N2CCN(c3nc(N)c4c(N)nc5c(c4c3C#N)CC(=O)N5C)CC2)cc1	-36	-36	100	100
15	CCOc1ccc2ccccc2c1C(=O)N[C@@H]1C(=O)N2[C@@H]1SC(C)(C)[C@@H]2C(=O)O	-9	-3	101	102
16	O=C(O)CCCc1nnc2n3nc(-c4ccccc4)nc3c3ccccc3n12	20	-19	103	102
17	CCOC(=O)c1nn(-c2cccc(Cl)c2)cc(Sc2ccc(Cl)cc2)c1=O	-9	2	106	111
18	CC(=O)Nc1ccc(S(=O)(=O)N2CCN=C2c2ccccc2)cc1	-10	-3	100	101
19	N#C/C(=C\c1ccc(Cl)cc1)c1ccccc1	1	10	103	104
20	Nc1ccc(SC(F)(F)F)cc1	-3	nt	101	96
21	Cc1ccc(-n2c(C)cc(/C=C(\C#N)C(=O)NCC3CCCO3)c2C)cc1 (stereo not given)	-37	-49	100	98
22	c1ccc(CSc2nnc(-c3c[nH]c4ccccc34)o2)cc1	-4	nt	104	106
23	Cc1cccc(N2C(=O)C3C(C(=O)NC4CC4)C4C=CC3(O4)C2C(=O)NC2CCCC2)c1 (stereo not given)	-3	0	103	104
24	COC(=O)c1cc(COC(=O)c2cc(CN3C(=O)c4ccccc4C3=O)ccc2OC)oc1C	-16	5	102	106
25	COc1ccccc1C(=O)c1nc2ccccc2n1C	13	-13	103	105
26	COc1ccc(CC(=O)NC(c2ccccc2)c2ccccc2)cc1	-5	nt	101	102
27	CSc1ccc(CN2C(=O)CCC2(C)C(=O)N2CCCC2)cc1 (stereo not given)	3	1	102	105
28	O=C(N=c1scc(-c2ccccc2)n1-c1ccccc1)c1ccco1	38	-7	104	110
29	O=S(=O)(Cc1ccccc1)NC1CCCCC1	nt	-10	100	96
30	COC(=O)c1ccccc1NC(=O)c1ccc(Cn2cc(Cl)cn2)cc1	9	-20	101	101
31	CC1Sc2cc(S(=O)(=O)N3CCC(Cc4ccccc4)CC3)ccc2NC1=O (stereo not given)	-5	-34	104	106
32	Cc1nc(Nc2ccc(S(=O)(=O)N3CCCC3)cc2)c2nnn(Cc3ccccc3)c2n1	-1	-32	98	104
33	CCN(C(=O)Cn1nnc(-c2ccccc2)n1)c1ccccc1	3	-16	102	101
34	CC(=O)Nc1ccc2nc(NC(=O)c3ccc(-c4ccccc4)cc3)oc2c1	-45	-15	99	98
35	Cc1c(C(=O)NCCN2CCOCC2)oc2ccc3c(c12)C(O)CC1(CCCCCC1)O3 (stereo not given)	89	4	102	102
36	Brc1ccc(-c2cc3n(c2)CCc2ccccc2-3)cc1	nt	-28	106	109
37	O=C(/C=C/N1C(=O)c2ccccc2C1=O)c1ccccc1	11	3	101	100
38	COc1ccc(-n2cnc3cc(NC(=O)c4cccs4)ccc32)cc1	-3	-17	102	102
39	COC(=O)c1sc2nc[nH]c(=O)c2c1CC(=O)O	35	-26	nt	nt
40	O=C1C=C(C(F)(F)F)c2ccc(NC3CCCCC3)c3cccc1c23	-2	0	78	151
41	COc1ccc(/C=N/OCC(=O)N2CCOCC2)cc1	-9	-22	101	102
42	COc1ccc(Sc2nn3nnnc3c3ccccc23)cc1	-6	11	100	104
43	COc1ccc(Oc2c(C)oc3cc(OC(=O)N4CCOCC4)ccc3c2=O)cc1	2	11	99	103
44	CC1CC(=O)C2=C(C1)Nc1ccccc1N=C2 (stereo not given)	13	-33	104	99
45	CC(C)C(=O)N=C1c2ccccc2CN1c1ccc(C#N)cc1	-10	nt	100	103
46	CN(Cc1ccccc1)C(=O)Cn1c(=O)oc2ccccc21	9	9	nt	nt
47	CCOC(=O)/C=C1\SCC(=O)N1Cc1cc(Cl)cc2c1OCOC2	-7	-16	110	107
48	CCOC(=O)/N=C(/c1ccc(Cl)cc1)c1cc2ccccc2cn1	2	-5	112	120
49	O=C(Cn1c(=O)c2cccn2c2cccnc21)N1CCCC1	8	-22	100	103
50	O=C(Oc1ccc2c(c1)OCO2)C12CC3CC(CC(C3)C1)C2	-7	-3	102	104
51	O=C(NC1CCCCC1)NC1CCN(S(=O)(=O)c2cccc(Cl)c2)CC1	-4	-8	104	102
52	CC1Cc2ccc(F)cc2CN1C(=O)c1ccc(COc2ccccc2Br)o1 (stereo not given)	2	-22	101	104
53	O=C(c1ccccc1)N1CCN(c2ccc(N3CCOCC3)nn2)CC1	-38	-7	98	95
54	CN(C)S(=O)(=O)c1cccc(COC(=O)c2cccnc2SCC(=O)Nc2ccc3c(c2)OCO3)c1	2	-25	108	119
55	CCNc1nc(-c2cccnc2)nc2ccccc12	-7	-10	104	106
56	Cc1ccc2[nH]c3c(c2c1)CCCC3C#N (stereo not given)	-14	-55	100	103
57	CCOCC(=O)Nc1nnc(C2CCCCC2)s1	25	-1	101	101
58	O=C(COc1ncnc2ccccc12)NCCc1ccccc1	-1	nt	103	98
59	Cc1cc(=O)[nH]c(SCC(=O)Nc2ccc(Br)cc2)c1C#N	nt	-3	103	99
60	CC(C)N=Cc1c(O)[nH]c2ccccc12	0	3	103	109

Other structures
No.	canonical_smiles	MbtI inh	Mtb MenB inh	Polio RdRp inh	Polio RdRp inh intensity
61	CC1CCCCC1NC(=O)c1cccc(NS(=O)(=O)c2ccc(Br)cc2)c1 (stereo not given)	1	-74	101	102
62	COc1ccc2c(c1)CCc1c(C(=O)NCCc3ccccc3)noc1-2	7	-35	101	103
63	Cc1nc2c3ccccc3nc(NNC(=O)CCC(=O)N3CCC(C)CC3)n2n1	2	3	101	100
64	O=c1[nH]c(NCCO)nc2sc3c(c12)CCCC3	13	-21	102	100
65	O=C(O)CSc1cnc2ccccc2n1	-19	-16	100	97
66	CCOc1ccccc1NC(=O)c1ccco1	nt	-8	102	103
67	O=c1ccc(-c2ccc(Br)s2)n[nH]1	3	-8	103	106
68	COc1cccc(Nc2nnc(Cc3cccnc3)c3ccccc23)c1	-6	0	101	99
69	Cc1csc(Nc2ccccc2)[n+]1CCO	-10	nt	103	100
70	O=C(CCSc1nnc2scc(-c3ccc(Cl)cc3)n12)NCCc1ccccc1	13	-8	103	99
71	Cc1ccc(NC(=O)c2nc3ncccn3n2)cc1	-4	3	99	97
72	O=C(NCCCN1CCOCC1)c1cc2ccccc2o1	-5	nt	104	107
73	COc1cc(C(=O)NCC#N)cc(OC)c1OC	-10	9	99	99
74	O=C1CNC(c2ccccc2)c2cc(Br)ccc2N1 (stereo not given)	-2	4	101	105
75	COc1cccc2cc(C(=O)Nc3ccc(S(=O)(=O)N4CCOCC4)cc3)c(=O)oc12	1	-17	100	104
76	COc1ccc2oc(=O)c(-c3cc4c(c(C)n3)c(=O)oc3ccc(OC)cc34)cc2c1	-1	-17	nt	nt
77	Cc1nc2ccc(Br)cc2c(=O)n1-c1cc(C(F)(F)F)ccc1N1CCOCC1	-3	-17	103	108
78	CCCn1cnc2cc(NCc3ccc(Br)cc3)ccc21	6	-38	105	105
79	Cc1ccc(Cc2nc3c(nnn3Cn3nnc(-c4ccc(Cl)cc4)n3)c(=O)[nH]2)cc1	-23	-9	100	104
80	O=c1c(C=NCCN2CCOCC2)c(C(F)(F)F)[nH]n1-c1nc2ccccc2s1	nt	-3	108	112
81	CCN1CCN(c2ncc3c(n2)CC(c2cc(OC)c(OC)c(OC)c2)CC3=O)CC1 (stereo not given)	-6	-22	99	101
82	Cn1c(COC(=O)c2sc3ccccc3c2Cl)nc2ccccc21	-5	-7	99	102
83	CCC(C(=O)Nc1ccc(OC)cc1)n1sc2ccccc2c1=O (stereo not given)	-11	-5	103	102
84	O=C(O)c1cccnc1NC1CCCC1	13	-3	105	102
85	CCOc1ccccc1C(=O)OCC(=O)N1CCN(c2ccccc2)CC1	12	-13	102	101
86	CC(Cn1cnc2ccccc21)C(=O)N=Nc1c(O)[nH]c2ccccc12 (stereo not given)	16	-16	100	102
87	COc1nc(NCCCC(C)C)nc(N2CCC(Cc3ccccc3)CC2)n1	10	9	99	100
88	CCOc1ccccc1C=C(C#N)C#N	42	-31	99	99
89	Cc1nn(C)cc1S(=O)(=O)N1CCc2ccccc2C1	-3	-5	104	105
90	Oc1ccccc1C=Nc1ccc(OC(F)(F)C(F)F)cc1	1	-55	101	100
91	CCOC(=O)c1ccc(NC(=O)C2CCN(Cc3cnn(-c4ccccc4)c3-n3cccc3)CC2)cc1	-10	12	99	100
92	O=C(NCCSc1c[nH]c2ccccc12)c1ccc(S(=O)(=O)N2CCCC2)cc1	4	-7	100	105
93	CC1Cc2cc(C3(O)C(=O)c4ccccc4C3=O)ccc2N1 (stereo not given)	-25	nt	100	103
94	O=c1[nH]ncc(NCc2ccc(Cl)cc2)c1Cl	8	0	103	101
95	COc1ccccc1-n1c(=O)c2c3c(sc2n2c(=S)[nH]nc12)CCC3	30	-30	103	100
96	Cc1oc(-c2ccc(C(=O)N3CCCCC3)cc2)nc1COc1ccccc1	130	-2	100	103
97	Cc1cc(C)n(C(=O)c2cccc(Cl)c2)n1	2	-30	103	104
98	Cc1ccc(CNc2ncc(-c3ccc(C)cc3)n2C)cc1	116	-1	99	101
99	c1ccc(N2CCN(CCNc3ncnc4nc[nH]c34)CC2)cc1	-6	-17	102	102
100	CCCCNC1CCS(=O)(=O)C1 (stereo not given)	-2	-4	105	113
101	O=C1N(CN2CCN(Cc3ccccc3)CC2)c2ccccc2C12OCCCO2	3	-24	100	101
102	O=C(NCC12CC3CC(CC(C3)C1)C2)C1CCCCC1C(=O)OCC(F)(F)F (stereo not given)	nt	-7	106	108
103	CNC(=O)c1cc2c(=O)n3cc(C)ccc3nc2n(C(C)C)c1=N	116	-55	105	104
104	Cc1c(O)ccc(C(=O)COc2ccccc2)c1O	10	-7	102	96
105	CSc1nc2ccc(S(=O)(=O)N3CCc4ccccc43)cc2s1	nt	-26	109	108
106	CCN1C(=O)S/C(=C\c2ccc3c(c2)OCO3)C1=O	3	-7	100	97
107	O=C(CSC1=NS(=O)(=O)c2ccccc2N1)N1CCCC1	-25	5	102	103
108	Cc1cc(C(=O)COn2nnc3ccc(Cl)cc32)c(C)n1-c1ccc2c(c1)OCCO2	2	0	104	108
109	CN(C(=O)COCc1cc(-c2ccco2)on1)c1ccccc1	-8	0	102	104
110	Cn1nnc2cc(C(=O)N3CCCCCC3)ccc21	-6	-18	102	101
111	CCN(C(=O)c1cccc(S(=O)(=O)N2CCCC2)c1)c1nc2c(C)cccc2s1	-11	-19	124	137
112	Cc1ccccc1Nc1sc(C(=O)c2ccccc2)c(N)c1C(N)=O	13	-19	98	96
113	Cn1nccc1NC(=O)c1ccccc1	-8	-3	112	110
114	O=c1cc(CN2CCC(Cc3ccccc3)CC2)c2ccc(O)cc2o1	-51	-38	105	109
115	CN(C)CCCN1C(=O)C2CCc3[nH]c4ccccc4c3C2C1=O (stereo not given)	-7	13	100	103
116	O=C(Nc1ccc(S(=O)(=O)Nc2ncccn2)cc1)c1ccc2c(c1)C(=O)N(Cc1ccncc1)C2=O	-22	-10	115	121
